Compound activity: PubChem, Broad Institute
RanGTP-Imp inh – disruptors of Ran-importin-beta complex formation – biochemical, FRET, CFP-Ran, YFP-importin-beta, homogeneous, primary screen; inhibition, % (no concentration beside the values); 300,000 tested, 1.1% active; cell-free CFP-Ran/YFP-importin-beta FRET ratio;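 active = most replicates above 15%; inconclusive = exactly half above 15%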;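 note: 0% = DMSO wells and 100% = Ran loaded with GDP instead of GTP; wells of about 40 µL received 100 nL stock; the first replicate is given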
ALR inh – blocks human ALR sulfhydryl oxidase activity. inhibition, % (no concentration beside the values). purified ALR, DTT oxidation, H2O2 HRP-luminol luminescence. AID 485317. 290,000 tested, 3.8% active;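 active = mean and each replicate at 75% or more; inconclusive = only one of the two met; inactive = neither met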;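 note: stock transfer was 7.5 nL into about 7.5 µL; 0% = neutral wells and 100% = wells with inactivated enzyme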
Target sequence (P55789 whole entry, looked up): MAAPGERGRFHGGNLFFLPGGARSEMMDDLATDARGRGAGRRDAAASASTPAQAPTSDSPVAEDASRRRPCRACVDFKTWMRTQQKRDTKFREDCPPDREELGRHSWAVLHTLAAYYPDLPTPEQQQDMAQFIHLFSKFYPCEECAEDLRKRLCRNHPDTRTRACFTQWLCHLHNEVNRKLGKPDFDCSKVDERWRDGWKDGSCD
FGF22 binding – binders of recombinant human FGF22 by thermal shift; 340,000 tested, 1.5% active; Q9HCT0; AID 651658; SYPRO orange fluorescence; percent of sucrose octasulfate shift, DMSO zero; calls only at 9.99 µM;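 active = melting point raised past a set limit in the mean and every replicate; inconclusive = no clear call; three in four hits are not shown here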
Target sequence (Q9HCT0 whole entry, looked up): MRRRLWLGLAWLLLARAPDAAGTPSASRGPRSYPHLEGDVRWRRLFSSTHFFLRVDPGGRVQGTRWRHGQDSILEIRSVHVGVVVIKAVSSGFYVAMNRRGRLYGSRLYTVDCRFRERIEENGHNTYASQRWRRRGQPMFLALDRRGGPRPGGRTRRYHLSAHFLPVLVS
T cruzi inh – T. cruzi replication inhibition. T. cruzi beta-gal in NIH3T3, luminescence, 90 h. inhibition, % (test concentration not listed). 300,000 tested, 1.4% active. AID 1885;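 active = mean inhibition across valid replicates above about 55%, limit read from the data; inconclusive = mean below that limit but half or more replicates reach it; inactive = mean below it, under half of replicates reach it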;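 note: signal also drops with host cell toxicity which is not excluded here; 0% = plate median of DMSO wells and 100% = zero luminescence signal; higher percent means less beta-gal luminescence so fewer parasites; stock transfer was 50 nL into about 50 µL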
Beta cell apopt – beta cell apoptosis inhibition. INS-1E cytokine-induced death, ATP luminescence, 48 h; percent of positive-control rescue, neutral wells zero. protection from apoptosis, % (test concentration not listed). 300,000 tested, 0.8% active;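 active = all replicates at 75% or more, or half of them and the mean; inconclusive = half reach 75% but not the mean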;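 note: 0% = cytokine-treated negative control wells and 100% = positive control rescue; higher means more ATP so stronger rescue from cytokine killing; wells of about 40 µL received 100 nL stock; the first replicate is given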
rRNA inh HTS – inhibits bacterial ribosomal RNA function over humanized ribosomes; E. coli WT GFP vs humanized-ribosome RFP mutants, fluorescence, 24 h; active compounds read low; DMSO median 0, no signal -100; GFP signal change (wild-type ribosome), % (test concentration not listed); 350,000 tested, 1.6% active; AID 720706;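 active = significant combined selectivity score with lowered wild-type GFP, culture density cut under 30%, mutant RFP and density less affected; inactive = any of these conditions unmet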; note: one replicate is shown; some compounds called inactive have numbers as strong as hits
MLL AF4-AF9 inh – MLL-AF4/AF9 protein interaction inhibition. AlphaScreen, biotin-AF4 peptide binding to FLAG-AF9. inhibition, % at 10 µM. P42568. 350,000 tested, 0.47% active. AID 651704;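 active = every replicate reaching a set inhibition limit, whatever the replicate mean, cut at about 25% in these data; inconclusive = mean inhibition reaches that limit but some replicates miss it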;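 note: 0% = plate neutral control median and 100% = total signal loss; the record names both 10 and 1 µM as test concentration; the first replicate is given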
Target sequence (P42568 whole entry, looked up): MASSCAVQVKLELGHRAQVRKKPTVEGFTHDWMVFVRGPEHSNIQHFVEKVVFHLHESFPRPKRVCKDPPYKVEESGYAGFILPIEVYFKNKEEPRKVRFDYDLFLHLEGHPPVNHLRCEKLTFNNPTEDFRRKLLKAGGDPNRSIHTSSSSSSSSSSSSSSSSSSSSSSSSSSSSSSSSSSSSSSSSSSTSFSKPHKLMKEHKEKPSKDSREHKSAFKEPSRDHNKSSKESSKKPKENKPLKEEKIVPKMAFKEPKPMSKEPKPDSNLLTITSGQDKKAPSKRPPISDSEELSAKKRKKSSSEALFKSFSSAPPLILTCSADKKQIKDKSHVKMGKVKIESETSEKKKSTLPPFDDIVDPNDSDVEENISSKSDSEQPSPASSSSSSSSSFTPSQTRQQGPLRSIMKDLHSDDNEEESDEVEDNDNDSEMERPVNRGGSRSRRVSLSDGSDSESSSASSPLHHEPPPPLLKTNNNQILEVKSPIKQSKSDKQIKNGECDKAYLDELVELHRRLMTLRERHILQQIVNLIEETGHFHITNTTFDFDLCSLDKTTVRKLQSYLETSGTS
Calb FLC – affects C. albicans growth with fluconazole. C. albicans CaCi-2 (fluconazole-resistant clinical isolate) + fluconazole, Alamar Blue growth, 48 h. growth inhibition, % (concentration not given with the values). 300,000 tested, 0.57% active. AID 1979;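 active = most replicates above 75%; inconclusive = exactly half above 75%; inactive = most below 75%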;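 note: all wells also contain fluconazole at 8 µg/ml as a sub-toxic cotreatment; 0% = median of DMSO wells and 100% = median of geldanamycin control wells; wells of about 8 µL received 7.5 nL stock; the first replicate is given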
rRNA inh HTS OD600 – second read-out of rRNA inh HTS, no call of its own (marks repeat the call); OD600 change, %; measured here: OD600 growth;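 optical density of the mix in the first replicate; 0 = DMSO median and -100 = no signal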
rRNA inh HTS RFP – further read-out of rRNA inh HTS, marked with its call; RFP signal change, %; measured here: RFP humanized mutant strains;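 first replicate; 0 = DMSO median and -100 = no signal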
Starred values were filed as active, the others as inactive; i = inactive; ? = inconclusive; . = no result given.

SMILES | RanGTP-Imp inh | ALR inh | FGF22 binding | T cruzi inh | Beta cell apopt | rRNA inh HTS | rRNA inh HTS OD600 | rRNA inh HTS RFP | MLL AF4-AF9 inh | Calb FLC
Cc1ccccc1-n1nc(C)c2cc(C(=O)N3CCN(S(=O)(=O)c4ccc(F)cc4)CC3)sc21 | -4.5 | -2 | . | 22 | 33 | . | . | . | . | -5
COc1ccc(OC)c(NC(=O)CC2Oc3ccccc3NC2=O)c1 (stereo not given) | -0.2 | 3 | i | -12 | -3 | 0 | -6 | -2.0 | -0.2 | 6
CCc1ccc(OCc2nnc(-c3ccccc3Br)o2)cc1 | . | 8 | i | . | -8 | -13 | -33 | -3.5 | -0.7 | .
O=C(c1cccc([N+](=O)[O-])c1)N1CCN(S(=O)(=O)N2CCCCC2)CC1 | ? | -2 | i | -7 | -2 | -1 | 4 | -3.1 | 0.6 | -1
CCOC(=O)N1CCC(N2CC34C=CC(O3)C(C(=O)Nc3ccc(C)cc3)C4C2=O)CC1 (stereo not given) | -0.2 | -3 | i | -3 | -6 | 1 | 6 | -2.6 | -1.6 | -4
Cc1onc(-c2ccccc2)c1-c1csc(N/N=C/c2ccccc2)n1 | 0.8 | -3 | i | 8 | 6 | 2 | 12 | 1.3 | 4.8 | 15
O=C(Nc1nnc(SCC(=O)N2CCCCC2)s1)c1ccc(F)cc1F | 6.2 | 3 | i | -5 | 3 | 5 | 14 | 3.3 | -1.4 | 23
Cn1cc(-c2cc(C(=O)O)on2)cn1 | 4.4 | 4 | i | -7 | -2 | 1 | 6 | -1.6 | -4.8 | -6
CCOCCCNC(=O)C(NC(=O)CNC(=O)c1ccccc1)c1ccccc1 (stereo not given) | 1.9 | -1 | . | -3 | -17 | . | . | . | . | -4
CCN(CC)S(=O)(=O)c1cc(OC)ccc1N=Nc1ccc(O)c2ncccc12 | -2.5 | -50 | i | 41 | 94* | 17 | 21 | 1.5 | 18 | 86*
O=C(Cn1cnc2ccccc2c1=O)N1CCc2ccccc2C1 | -0.8 | -2 | i | 8 | -5 | 1 | -3 | 0.9 | -2.1 | 25
CCC1(C)Cc2ccccc2C(=S)N1 (stereo not given) | ? | 7 | . | -12 | 5 | 19 | 7 | 1.8 | -0.8 | -19
Cc1ccc(S(=O)(=O)N2CCC(=O)N(C(COCc3cccc(C(F)(F)F)c3)C(C)C)CC2)cc1 (stereo not given) | 4.6 | . | . | 26 | 1 | . | . | . | . | 4
Cc1ccc(CN2C(=O)C(C)Oc3ccccc32)cc1 (stereo not given) | 0.9 | 11 | i | 18 | 0 | -46 | -68 | -13 | -2.1 | -7
CC(=O)NCCc1nc2ccccc2n1CCCCOc1ccccc1 | -1.9 | -12 | i | -15 | 4 | -22 | -22 | -2.5 | -0.2 | -4
O=C(OCC(=O)N1CCCCC1)c1cc(S(=O)(=O)N2CCOCC2)c(Cl)cc1Cl | . | 0 | i | . | -1 | 7 | 11 | 0.6 | -1.8 | .
O=C(NCc1cccc(Br)c1)C1CC(c2cc(C(F)(F)F)cc(C(F)(F)F)c2)=NO1 (stereo not given) | -0.4 | 6 | i | -2 | -2 | -1 | 0 | 1.3 | 6.4 | 11
O=C(C(NS(=O)(=O)c1cccs1)c1ccccc1)N1CCN(c2ccccc2)CC1 (stereo not given) | 3.5 | 22 | . | 6 | 3 | . | . | . | . | 20
Cc1ccc(N(CC(=O)N2CCOCC2)S(C)(=O)=O)cc1 | -3.1 | -19 | . | 6 | . | 9 | -5 | -2.4 | 0.4 | -4
Cc1ccc2nc(C)cc(C(=O)NC3CCCCCC3)c2c1 | . | 0 | i | . | 1 | . | . | . | -1.2 | .
COC(=O)[C@]1(Cc2ccccc2)N[C@H](c2ccc(-c3cc(C(C)=O)cs3)cc2)[C@@H]2C(=O)N(C)C(=O)[C@@H]21 | 1.0 | -4 | i | -10 | -6 | -3 | -2 | -12 | -4.8 | 8
O=C(NCCCN1CCCC1=O)c1cccc(NS(=O)(=O)c2ccccc2)c1 | 1.0 | 2 | i | -4 | 0 | 0 | -4 | -0.1 | -2.5 | -2
COc1ccc(S(=O)(=O)Cc2ccc(C(=O)NCc3cccs3)o2)cc1 | 7.4 | . | i | -6 | 1 | 10 | 4 | 6.9 | 3.1 | 11
CCNS(=O)(=O)c1ccc(NC(=O)Nc2cccc(C(F)(F)F)c2)cc1 | 8.7 | -3 | . | 61* | 7 | . | . | . | . | -8
COc1ccc(-c2cc(=O)oc3c(C)c(OCC(=O)N[C@@H](Cc4ccc(O)cc4)C(=O)O)ccc23)cc1 | 4.8 | 15 | i | 1 | 0 | -8 | -5 | -14 | -2.8 | 0
C=CCSC(=C(C#N)C#N)c1cc2c([nH]1)CCCC2 | -0.4 | 47 | . | -13 | 14 | . | . | . | . | .
Cc1ccc(C(=O)Oc2ccc(Br)cc2C(=S)N2CCOCC2)cc1 | 3.4 | . | i | 1 | -1 | -7 | -13 | 1.4 | 13 | 26
CCOc1cc(CNC(C)C)c(Cl)cc1OCC(=O)NCCc1ccccc1 | -1.8 | -14 | . | 4 | 2 | . | . | . | . | -2
CCCCOC(=O)Nc1nc2ccc([N+](=O)[O-])cc2s1 | -0.8 | -3 | i | -3 | 3 | 12 | 11 | 1.5 | 0.3 | 5
CCOC(=O)CC1(C)OCC(C[N+]2(C)CCCCC2)O1 (stereo not given) | -2.8 | -4 | i | -11 | . | 30 | 25 | 2.5 | -3.1 | ?
Cc1cc(C)c(C(=O)CSc2nnc(N)s2)cc1C | 1.3 | 51 | i | -21 | -1 | 4 | -5 | -2.1 | -12 | -8
COC(=O)[C@@]1(Cc2ccc(OC)cc2)[C@H]2c3cc(C(=O)N4CCCC4)n(CCO)c3C[C@H]2CN1C(=O)c1ccccc1 | . | . | i | . | -7 | 3 | 7 | 5.5 | 4.5 | .
COc1ccc(S(=O)(=O)N2CCCCC2)cc1C(=O)N1CCCCCC1 | -2.7 | . | i | 4 | -4 | 2 | 0 | -0.4 | 3.3 | -19
O=C(Nc1ccccc1N1CCCC1)c1cc2ccccc2o1 | -1.9 | 27 | . | 11 | 5 | . | . | . | . | -27
CCc1ccc(/C=C2\SC(=S)N(CCCC(=O)Nc3ccccc3C(=O)O)C2=O)cc1 | 1.9 | 97* | i | -13 | -16 | -37 | -45 | -13 | 1.5 | 70
O=C(NCC(=O)N(c1cccnc1)C(C(=O)NCc1ccco1)c1ccccc1)c1ccco1 (stereo not given) | 1.4 | . | . | -2 | -4 | . | . | . | . | 2
COC(=O)C1C(=O)C2=C(CC1C)NC(C)=C(C(=O)OCCOc1ccccc1)C2c1ccc(C)o1 (stereo not given) | -1.2 | -21 | . | 9 | -2 | . | . | . | . | 51
CCCCN(CCCC)S(=O)(=O)c1ccc2[nH]c(=O)[nH]c2c1 | -1.2 | -1 | i | -9 | -9 | -12 | -14 | -7.2 | 1.5 | -2
COc1ccc(C(=O)NCC(=O)N=Nc2c(O)n(C)c3ccccc23)cc1OC | 1.2 | 9 | i | 3 | 1 | -3 | 2 | -1.4 | -5.7 | -6
O=C1CCC(c2ccccc2)(C2CCN(Cc3ccccc3)CC2)C(=O)N1 (stereo not given) | 0.5 | -10 | i | 1 | -2 | . | . | . | -3.8 | -28
COc1cccc(C(=O)N2CCN(C(=O)c3ccc(-c4ccccc4)cc3)CC2)c1OC | -4.1 | . | i | 22 | 5 | 2 | 21 | 0.8 | 1.1 | 18
Cc1ccccc1C(=O)N1CCCC(CCC(=O)N2CCN(c3ccccn3)CC2)C1 (stereo not given) | -1.3 | 1 | i | 6 | -2 | 2 | 7 | -2.4 | -0.6 | -1
NC(=O)COc1ccc(=O)n(-c2ccccc2)n1 | -1.5 | . | i | -16 | 3 | 2 | 12 | 0.2 | -15 | 0
CCc1ccc(CNC(=O)C2CCCN(c3nn4c(=O)cc(C)nc4s3)C2)cc1 (stereo not given) | -1.0 | 16 | i | -4 | -9 | 0 | 11 | 3.4 | -10 | -4
COC(=O)C1=C(CN2CCSCC2)NC(=O)NC1c1cc(C)ccc1C (stereo not given) | 2.8 | -1 | . | 13 | 8 | . | . | . | . | 14
C=CCn1c(=O)c(CCC(=O)Nc2ccc(N3CCOCC3)cc2)nc2cc(C(F)(F)F)ccc21 | ? | -3 | i | 10 | 2 | 2 | 7 | 1.4 | -0.6 | 4
CC1=[N+](CC(=O)NC(C)(C)C)CCc2ccccc21 | 7.6 | 1 | i | -4 | -10 | 5 | -2 | -3.1 | 2.3 | -22
O=C(c1cc(-c2cccs2)on1)N1CCOCC1 | -5.0 | -22 | . | 5 | -2 | . | . | . | . | 8

Molecules above that have an NH in an aromatic ring:
SMILES | RanGTP-Imp inh | ALR inh | FGF22 binding | T cruzi inh | Beta cell apopt | rRNA inh HTS | rRNA inh HTS OD600 | rRNA inh HTS RFP | MLL AF4-AF9 inh | Calb FLC
C=CCSC(=C(C#N)C#N)c1cc2c([nH]1)CCCC2 | -0.4 | 47 | . | -13 | 14 | . | . | . | . | .
CCCCN(CCCC)S(=O)(=O)c1ccc2[nH]c(=O)[nH]c2c1 | -1.2 | -1 | i | -9 | -9 | -12 | -14 | -7.2 | 1.5 | -2

Going on with the list:
SMILES | RanGTP-Imp inh | ALR inh | FGF22 binding | T cruzi inh | Beta cell apopt | rRNA inh HTS | rRNA inh HTS OD600 | rRNA inh HTS RFP | MLL AF4-AF9 inh | Calb FLC
Cc1onc(-c2ccccc2)c1C(=O)Nc1nnc(COc2ccc(Cl)cc2)s1 | 5.0 | -4 | . | -11 | 0 | . | . | . | . | -16
CCOC(=O)Nc1nnc(-c2ccc(OC)c(OC)c2)s1 | 0.3 | 4 | . | . | -4 | . | . | . | . | -1
Cc1cc(C(F)(F)F)c2c(=O)[nH]c(=O)n(Cc3ccccc3)c2n1 | 4.0 | -17 | . | 1 | -6 | . | . | . | . | -2
CC(C)(C)c1ccc(C(=O)NC(=S)Nn2cnnc2)cc1 | -2.3 | -2 | . | -1 | 3 | . | . | . | . | -8
O=C(O)C(Cc1ccccc1)n1cccc1 (stereo not given) | 4.4 | 11 | . | -8 | -3 | . | . | . | . | -9
O=C(NC1CCCCC1)C1CCN(S(=O)(=O)c2cccc3nsnc23)CC1 | 1.1 | -3 | i | 3 | -2 | 8 | 5 | 0.3 | 2.3 | 6
Cc1cc2ccccc2n1CCNC(=O)C1CC1 | -0.6 | -13 | i | 5 | 1 | -15 | 0 | 45 | 17 | -9
O=S(=O)(NCc1ccccc1Cl)c1cnc[nH]1 | 0.6 | . | . | -1 | -3 | . | . | . | . | -2
CCOc1cc(C(c2c(C)[nH][nH]c2=O)c2c(C)[nH][nH]c2=O)ccc1OCc1ccc([N+](=O)[O-])cc1 | -3.2 | 12 | . | 8 | 6 | . | . | . | . | 3
Cc1ccc(S(=O)(=O)Nc2ccc3[nH]c(=O)[nH]c3c2)c(C)c1 | 5.6 | 23 | i | -19 | -11 | -7 | -3 | 3.5 | -0.4 | 42
COc1ccccc1N(CCC#N)C(=O)CSc1nnc2ccccn12 | . | -12 | i | . | -2 | 0 | 7 | -0.9 | -4.1 | .
Cc1cc(-c2ccccc2)n(-c2ccc(C(N)=O)cc2)n1 | -4.1 | . | . | -17 | -4 | . | . | . | . | -2

This is a subset; count on the stated rates, not on these rows.
